KCNQ2 block: KCNQ2 channel blockers in CHO-K1 cells – cell-based, FluxOR thallium flux, B-score, primary screen (AID 2156) | O88943 | 20 min; stronger effect = lower value; only compounds with negative scores are shown here; some inactives read as strong as hits | B-score at 10 µM | 310,000 tested, 1.1% active;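 active means fluorescence ratio B-score at most minus 3 library SDs, with starting brightness B-score within 2 library SDs, cut at about -5.5 in these data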
Target sequence (O88943 whole entry, looked up): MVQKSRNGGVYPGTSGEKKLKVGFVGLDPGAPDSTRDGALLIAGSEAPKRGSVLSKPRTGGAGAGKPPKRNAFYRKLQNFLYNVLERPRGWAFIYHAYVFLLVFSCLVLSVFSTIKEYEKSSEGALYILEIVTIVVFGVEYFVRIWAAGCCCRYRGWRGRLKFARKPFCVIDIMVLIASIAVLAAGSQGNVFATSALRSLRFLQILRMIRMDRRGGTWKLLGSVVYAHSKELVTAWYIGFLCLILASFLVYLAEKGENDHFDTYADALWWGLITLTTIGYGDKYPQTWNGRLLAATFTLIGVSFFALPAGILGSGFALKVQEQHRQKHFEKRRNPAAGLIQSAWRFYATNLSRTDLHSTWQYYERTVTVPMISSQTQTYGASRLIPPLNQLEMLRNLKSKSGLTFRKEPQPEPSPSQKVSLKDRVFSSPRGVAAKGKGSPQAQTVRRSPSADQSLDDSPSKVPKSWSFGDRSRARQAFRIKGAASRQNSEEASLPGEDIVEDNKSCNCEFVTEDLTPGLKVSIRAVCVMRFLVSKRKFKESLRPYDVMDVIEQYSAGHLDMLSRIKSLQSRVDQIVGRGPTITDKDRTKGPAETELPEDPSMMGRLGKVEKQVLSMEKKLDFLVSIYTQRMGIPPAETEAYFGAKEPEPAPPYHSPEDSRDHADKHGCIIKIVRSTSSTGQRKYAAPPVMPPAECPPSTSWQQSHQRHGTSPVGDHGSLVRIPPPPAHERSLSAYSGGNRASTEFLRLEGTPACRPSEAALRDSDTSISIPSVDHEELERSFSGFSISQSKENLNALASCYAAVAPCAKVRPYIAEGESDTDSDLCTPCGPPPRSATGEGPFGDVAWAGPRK
KCNQ2 block baseline: further read-out of KCNQ2 block, marked with its call; B-score; measured here: initial fluorescence intensity artifact check;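 brightness before thallium and not channel activity; 0 = typical well and far values either way flag optical interference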
Starred values were filed as active, the others as inactive; i = inactive.

SMILES | KCNQ2 block | KCNQ2 block baseline
Cc1cc(C)c2sc(N(CCCN(C)C)C(=O)c3ccc(S(=O)(=O)N4CCCc5ccccc54)cc3)nc2c1 | -7.7* | 0.12*
O=C(O)c1ccc(Cl)c(S(=O)(=O)NCC2CCCO2)c1 (configuration not stated) | i | 0.45
CC(=O)C1=C(O)C(=O)N(c2ccc(Br)cn2)C1c1ccc(F)cc1 (configuration not stated) | i | 0.54
O=C(Nc1ccc2c(c1)OCO2)c1ccc2nc[nH]c2c1 | i | -1.7
COc1cc(S(=O)(=O)NCCOC23CC4CC(CC(C4)C2)C3)c(OC)cc1Cl | i | 1.5
CCNC(=S)N1CCc2cc(OC)c(OC)cc2C1COc1ccc(F)cc1 (configuration not stated) | i | 2.2
COc1cccc(/C=N/NC(=O)c2cc3cc([N+](=O)[O-])ccc3s2)c1O | i | -0.54
O=[N+]([O-])c1cc(S(=O)(=O)Nc2cccc(Cl)c2)ccc1N=Nc1c(O)[nH]c2ccccc12 | i | -2.4
O=C(N=c1ccn(-c2nc3ccccc3nc2NS(=O)(=O)c2ccc(Cl)cc2)cc1)c1ccccc1Cl | i | 1.1
O=C(NCc1ccccc1)C1CCCN(c2ncnc3c2nc2n3CCCCC2)C1 (configuration not stated) | i | 1.5
Cc1ccc(OC(=O)c2cccc(S(=O)(=O)N3CCN(C)CC3)c2)c(Br)c1 | i | 2.4
COc1ccc(CN(C(=O)c2ccccc2Br)C2CCS(=O)(=O)C2)cc1 (configuration not stated) | i | -0.74
O=c1c2c3c(sc2n(CCN2CCOCC2)c(=O)n1Cc1ccco1)CCCCC3 | i | 0.07
CC1CC(C)(C)NC(=S)N1CCCC(=O)Nc1ccc(Br)cc1 (configuration not stated) | i | 0.74
Cc1cccc(C)c1N=Nc1c(C)cc(O)cc1C | i | -0.84
C=CCOC(=O)C1=C(C)NC(=O)NC1c1ccc(O)cc1 (configuration not stated) | i | 0.44
COc1ccc(N=C2S/C(=C\c3ccc(C)o3)C(=O)N2CC(C)C)cc1 | -6.1* | -0.66*
O=C(CSc1nc2[nH]ncc2c(=O)[nH]1)Nc1nccs1 | i | 0.5
N#CC1(NC(=O)COC(=O)c2ncc(Cl)c(Cl)c2Cl)CCCCC1 | i | 0.04
O=C(O)c1cc(S(=O)(=O)Nc2ccc(OCc3ccccc3)cc2)ccc1Br | i | -0.77
Cc1ccc(-n2c(-c3ccc(Cl)cc3Cl)n[nH]c2=S)cc1 | i | 0.12
CN(CC(=O)Nc1ccc(F)cc1Cl)Cc1cccs1 | i | -0.93
O=C(c1ccccc1F)N1CCC(N2CCCCCC2)CC1 | i | 1.1
Cc1nc2ccccc2cc1C(=O)N/N=C/c1cccc([N+](=O)[O-])c1 | i | 1.5
COc1ccc(S(=O)(=O)N(CC(=O)NCC2CCCO2)c2ccc(Cl)cc2)cc1 (configuration not stated) | i | 0.29
COc1ccc(C(=O)Nc2ccc3[nH]ncc3c2)cc1 | i | 1.1
CC(=O)c1sc(NC(=O)C2COc3ccccc3O2)nc1C (configuration not stated) | i | -0.14
CCOC(=O)c1ccc(N2C(=O)CC(NC3CCN(C(=O)c4ccc(F)cc4)CC3)C2=O)cc1 (configuration not stated) | -9.5* | -7.4*
OC(CN1CCN(c2cccc(Cl)c2)CC1)c1ccccc1 (configuration not stated) | i | 0.69
Cc1ccc(N2CCN(C(=O)C3CCC(=O)N(Cc4ccc(Cl)cc4)C3)CC2)c(C)c1 (configuration not stated) | i | -1.9
Cc1cc(NC(=O)Nc2ccc(F)cc2F)n(C)n1 | i | 0.66
Cc1ccc(S(=O)(=O)NCC(c2ccc3c(c2)OCO3)N2CCOCC2)cc1 (configuration not stated) | i | -0.11
Cc1noc(C)c1COc1ccc(C(=O)N2CCN(S(=O)(=O)c3ccc(Cl)cc3)CC2)cc1 | i | 0.54
COc1ccc(C(=O)N/N=C/c2sc(=O)n(Cc3cccc(C(=O)O)c3)c2Cl)cc1 | i | 3.4
Cc1oc(-c2ccccc2F)nc1CN1CCC(C(=O)NCCC2=CCCCC2)CC1 | i | 0.56
CCCCN(C(=O)CSc1nnc2ccccn12)c1c(N)n(Cc2ccccc2)c(=O)[nH]c1=O | i | 0.89
O=C(CSCc1cnn(-c2ccccc2)c1-n1cccc1)NCc1ccc2c(c1)OCO2 | i | 0.08
COc1ccc(S(=O)(=O)N2CCCC(C(=O)NCCc3ccccc3)C2)cc1 (configuration not stated) | i | 0.18
COc1ccc(C2=NOC(C(=O)NCc3ccco3)C2)cc1OC (configuration not stated) | i | -0.65
Cc1cc(C)cc(NC(=O)CCn2ccnc2C)c1 | i | 1
On1c(-c2ccccc2)nc2ccc(Cl)cc21 | i | 3
Cc1ccc(C(=O)NCc2ccccc2F)cc1S(=O)(=O)N1CCCC1 | i | -0.64
CSc1nc(N(C)NC(=O)c2ccccc2)c2ccccc2n1 | i | 0.62
O=C(NCCNC(=O)c1ccc(Cl)cc1Cl)c1ccco1 | i | -0.08
CCc1nnc(NC(=O)Cc2ccc(OCc3c(C)noc3C)cc2)s1 | i | 2
CCS(=O)(=O)N1CCN(C(=O)c2cc(OC)cc(OC)c2)CC1 | i | -0.72
COc1cccc(NC(=O)CNC(=O)c2ccc([N+](=O)[O-])cc2)c1 | i | -0.72
CC(=O)N1c2c(cc(Br)cc2S(=O)(=O)N2CCN(c3ccccn3)CC2)CC1C (configuration not stated) | i | -0.88
O=C(CC12CC3CC(CC(Br)(C3)C1)C2)NC1CCCC1 | i | 0.09
CN(Cc1ccco1)C(=O)Cn1nc(-c2ccc(Cl)cc2)ccc1=O | i | -1
CCCN(S(=O)(=O)c1ccccc1F)S(=O)(=O)c1ccccc1Br | i | 0.55
COc1ccc(NC(=O)NNC(=O)COc2ccc3ccccc3c2)cc1OC | i | 0.07
CC(C)CCN(N=O)[C@@H](Cc1ccccc1)CN(N=O)[C@@H](Cc1ccccc1)CN(C)N=O | i | 1.1
COc1ccc(-n2c(SCC(=O)NCc3ccco3)nc3sc4c(c3c2=O)CCN(C)C4)cc1 | i | 1.4
O=C(CSc1nccn1Cc1ccco1)Nc1cccc(F)c1 | i | -0.82
CCN(CC)C1CCN(c2nc3nonc3nc2NCCOC)C1 (configuration not stated) | i | -1.9
CCCNC(=O)CNC(=S)N(Cc1ccccc1F)C1CCCCC1 | i | -1.4
CCCN1C(=O)/C(=C\c2ccncc2)SC1=Nc1ccccc1 | i | 2.3
COCCCNc1nc2c([nH]1)c(=O)[nH]c(=O)n2C | i | -0.09
O=C(Nc1cc(Cl)cc(Cl)c1)N1CCCN(Cc2ccccc2)CC1 | i | -1.9

New compounds follow:
SMILES | KCNQ2 block | KCNQ2 block baseline
CCOCCc1nn2c(=O)cc(CSCC(=O)Nc3ccccc3)nc2s1 | i | 0.52
COc1ccccc1N1CCN(C(=O)COc2cccc3ccccc23)CC1 | i | 0.84
CC1(C)NC(=O)N(CC(O)CN(c2ccccc2)S(=O)(=O)c2ccccc2)C1=O (configuration not stated) | i | 1.3
COc1ccc(CCNC(=O)COC(=O)c2ccc(Br)o2)cc1 | i | -1.5
Cc1ccc(CS(=O)(=O)CCC(=O)NCc2ccc(F)cc2)cc1 | i | -0.9
CCOC(=O)C(NCc1ccccc1OC)(NC(=O)CC)C(F)(F)F (configuration not stated) | i | 1.8
NC1=NC2(CCCCCC2)n2c(nc3ccccc32)N1 | i | 0.51
COc1cc(Cl)c(C)cc1NC(=O)c1ccc2c(c1)OCO2 | i | 1.1
Cc1cccc(C)c1NC(=O)C(c1ccccc1)N1CCC2(CC1)OCCO2 (configuration not stated) | i | -0.08
COc1ccc(CCNc2ncnc3c2nnn3Cc2ccccc2)cc1 | i | -0.29
O=C(c1cccc([N+](=O)[O-])c1)N1CCOCC1 | i | 1.6
Cc1ccc(CC(=O)NCC(c2ccco2)N(C)C)cc1C (configuration not stated) | i | -0.01
CCOC(=O)C1(P(=O)(c2ccc(Cl)cc2)c2ccc(Cl)cc2)CCC1 | -7.2* | 1.9*
CCN(CC)S(=O)(=O)c1cc(NC(=O)C(C)N2CCN(Cc3ccc4c(c3)OCO4)CC2)ccc1C (configuration not stated) | i | 0.04
COc1ccc(/C=N/NC(=O)c2cccnc2)cc1 | i | 0.8
Cc1nonc1NC(=O)Nc1cccnc1 | i | 2.2
CC(=O)Nc1ccc(S(=O)(=O)N2CCN=C2SCc2ccc(C)cc2)cc1 | i | -0.03
O=C(c1ccc(Cl)cc1)C1CCCN(Cc2ccc(Oc3ncccn3)cc2)C1 (configuration not stated) | i | 2.6
COc1ccc(C(=S)N2CCOCC2)cc1OC(=O)c1ccc([N+](=O)[O-])cc1[N+](=O)[O-] | i | -0.17
O=S(=O)(Nc1nc2ccccc2nc1NCCO)c1cccc(Cl)c1 | i | 0.9
Nc1nonc1C(=O)N1CCCCC1 | i | 0.49
CCC1=C2CC[C@H]3C(=O)N(c4ccccc4)C(=O)[C@H]3[C@H]2[C@@]2(C)C(=NCc3ccccc3)OC(=O)N2C1=O | i | 1.1
O=C(CCc1ccccc1)Nc1ccnn1C1CCN(Cc2ncc[nH]2)CC1 | i | 0.27
CCOc1cc([N+](=O)[O-])cc2c1C(=O)Nc1ccccc1O2 | i | 0.02
Cc1cc(C)nc(SCCCn2c(=O)[nH]c3ccccc32)n1 | i | 1.3
CC1(C)CC(=O)c2c(nc3ccccc3c2N)C1 | i | 1.7
O=C(CN1C(=O)C2CCCCC2C1=O)OCn1nnc2ccccc2c1=O (configuration not stated) | i | 0.41
O=C(NCC(c1cccs1)N1CCOCC1)c1ccccc1NS(=O)(=O)c1cc([N+](=O)[O-])ccc1Cl (configuration not stated) | i | 0.13
COc1ccc(NS(=O)(=O)c2ccc(NC(=O)C(CCSC)NC(N)=O)cc2)cc1 (configuration not stated) | i | -1.1
COc1ccc(N(C(=O)C2CSC(=O)C2)C(C(=O)NC(C)(C)C)c2ccncc2)cc1 (configuration not stated) | i | -0.7
COc1ccc(OC)c2sc(NC(=O)C3=COCCO3)nc12 | i | 0.08
CC(C)N(C(=O)Cn1c(Cl)nc2ccccc21)C(C)C | i | 0.1
COc1ccc(-c2cc(C(=O)Nc3ccccc3N3CCOCC3)c3ccccc3n2)cc1OC | -8.2* | -0.83*
O=C(Cc1ccc(F)cc1)N1CCN(c2ccc(F)cc2)CC1 | i | -0.83
COc1cc(CN2CCCC(C(=O)Nc3cccc(-n4cccn4)c3)C2)ccc1F (configuration not stated) | i | 0.83
COc1ccc([C@@H]2C[C@@H](c3ccccc3)Oc3c(C)ccc(C(C)C)c32)cc1 | i | 2.7
CCN(CC(=O)NCc1cccs1)C(=O)/C=C/c1cccc(Cl)c1Cl | i | -2.1
CNc1nnc(-c2ccc(OC)cc2)s1 | i | 0.19
COc1cc(-c2nc(C(=O)NC3CCN(Cc4ccccc4)CC3)cc3c2[nH]c2ccccc23)cc(OC)c1OC | i | -0.88
CCOC(=O)c1c(NC(=O)Cn2nc(C(=O)O)c3ccccc3c2=O)sc(CC)c1C | i | 0.18
Cc1ccc(N2C(=O)c3ccc(N)cc3C2=O)cc1 | i | 1.4
CCC(C(=O)NCc1cccs1)n1nc(C)n2c(cc3occc32)c1=O (configuration not stated) | i | 0.71
CCOc1cccc(C(=O)Nc2ccc(N3CCCC3)cc2)c1 | i | -0.35
Cc1ccc(-n2nc3ccc(N)cc3n2)c(C)c1 | i | 1.4
O=C(c1ccc(CS(=O)c2ccccc2Cl)o1)N1CCN(c2ccccc2)CC1 (configuration not stated) | i | 0.95
CCCOc1ccc(N2C(=O)CC(SCCc3nc4ccccc4[nH]3)C2=O)cc1 (configuration not stated) | i | -1.5
O=C(c1cc(Cl)ccc1Cl)N1CCN(c2ccccn2)CC1 | i | -0.15
CCOCCCNC(=O)c1cc2c(=O)[nH]c3ccccc3c2s1 | i | 2.1
COc1cccc(C2CC(C(F)(F)F)n3ncc(C(=O)O)c3N2)c1 (configuration not stated) | i | -0.4
CC(Sc1ccc(Cl)cc1)C(=O)Nc1ccccc1-c1ccccc1 (configuration not stated) | i | -1.3
O=C(NCc1cccnc1)Nc1ccc(Br)cc1 | i | 1.9
C/C(=N/NC(=O)c1ccoc1C)c1ccc(N2CCOCC2)cc1 | i | -1.2
CN(C)C(=O)c1ccc(Nc2nnc(-c3ccc(O)cc3)c3ccccc23)cc1 | i | -0.76
COc1ccccc1CCNC(=O)c1ccc(NC(=O)CC2SC(N3CCCC3)=NC2=O)cc1 (configuration not stated) | i | 2.3
C=CCn1c(-c2ccc(C)cc2)nc2ccccc21 | i | -0.16

Compound activity as filed in PubChem BioAssay.

Only part of the results is shown; the hit share may differ from the screen's.
